MLL AF4-AF9 inh – inhibitors of human MLL-AF4/AF9 interaction. AlphaScreen, biotin-AF4 peptide binding to FLAG-AF9. inhibition, % at 10 µM. 0.47% of 350,000 active;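 active = every replicate reaching a set inhibition limit, whatever the replicate mean, cut at about 25% in these data; inconclusive = mean inhibition reaches that limit but some replicates miss it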;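 also: 0% = plate neutral control median and 100% = total signal loss; the record names both 10 and 1 µM as test concentration; the first replicate is given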
Target sequence (P42568 whole entry, looked up): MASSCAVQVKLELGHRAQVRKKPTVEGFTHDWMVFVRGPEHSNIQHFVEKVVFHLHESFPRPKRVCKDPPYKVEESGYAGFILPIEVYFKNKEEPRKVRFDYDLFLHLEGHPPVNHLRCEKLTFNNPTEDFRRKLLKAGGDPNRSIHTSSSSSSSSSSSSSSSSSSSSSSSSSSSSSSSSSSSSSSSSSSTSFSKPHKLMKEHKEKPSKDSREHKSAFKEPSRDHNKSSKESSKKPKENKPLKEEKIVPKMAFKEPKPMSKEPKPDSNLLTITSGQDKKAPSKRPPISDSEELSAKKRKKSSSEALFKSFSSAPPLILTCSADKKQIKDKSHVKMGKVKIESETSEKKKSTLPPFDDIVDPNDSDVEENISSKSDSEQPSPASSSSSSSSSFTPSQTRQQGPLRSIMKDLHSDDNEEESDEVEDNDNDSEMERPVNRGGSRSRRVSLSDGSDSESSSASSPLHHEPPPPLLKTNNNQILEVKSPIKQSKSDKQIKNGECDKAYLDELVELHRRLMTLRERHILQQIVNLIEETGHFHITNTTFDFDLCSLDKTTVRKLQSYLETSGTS
T cruzi repl – blocks replication of Trypanosoma cruzi. T. cruzi beta-gal in NIH3T3, luminescence, 90 h. inhibition, % (no concentration beside the values). 1.4% of 300,000 active;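 active = mean inhibition across valid replicates above about 55%, limit read from the data; inconclusive = mean below that limit but half or more replicates reach it; inactive = mean below it, under half of replicates reach it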;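 also: signal also drops with host cell toxicity which is not excluded here; 0% = plate median of DMSO wells and 100% = zero luminescence signal; higher percent means less beta-gal luminescence so fewer parasites; stock transfer was 50 nL into about 50 µL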
Beta cell apopt – beta cell apoptosis inhibition; AID 435005; protection from apoptosis, % (no concentration beside the values); 0.8% of 300,000 active; INS-1E cytokine-induced death, ATP luminescence, 48 h; percent of positive-control rescue, neutral wells zero;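 active = all replicates at 75% or more, or half of them and the mean; inconclusive = half reach 75% but not the mean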;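 also: 0% = cytokine-treated negative control wells and 100% = positive control rescue; higher means more ATP so stronger rescue from cytokine killing; wells of about 40 µL received 100 nL stock; the first replicate is given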
A1 inh – inhibitors of the anti-apoptotic protein A1, read as caspase activation; MEF A1-2A-BIM cells, Caspase-Glo 3/7 luminescence, 3 h; percent of clofoctol response, vehicle zero; 0.066% of 330,000 active; caspase activation, % (concentration not given with the values);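 active = over half of replicate activation scores above 10%, or exactly half above 10 with the replicate mean above 10; inconclusive = replicate mean below 10 yet half the replicates above 10; inactive = over half of replicates below 10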;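 also: wells of about 30 µL received 50 nL stock; many hits fall short of the cut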
Ecoli rRNA inh – inhibits bacterial ribosomal RNA function over humanized ribosomes | E. coli WT GFP vs humanized-ribosome RFP mutants, fluorescence, 24 h; active compounds read low; DMSO median 0, no signal -100 | GFP signal change (wild-type ribosome), % (concentration not given with the values) | 1.6% of 350,000 active | AID 720706;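 active = significant combined selectivity score with lowered wild-type GFP, culture density cut under 30%, mutant RFP and density less affected; inactive = any of these conditions unmet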; also: one replicate is shown; some compounds called inactive have numbers as strong as hits
UCH37 DUB inh – blocks the human deubiquitinase UCH37 | Q9Y5K5 | purified proteasome/UCH37, Ub-AMC cleavage fluorescence | inhibition, % (test concentration not listed) | 0.33% of 330,000 active | AID 588478;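 active = mean of two replicates above 20%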;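 also: 0% = compound-free wells with enzyme and 100% = wells lacking proteasome; stock transfer was 100 nL into about 20 µL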
Target sequence (Q9Y5K5 whole entry, looked up): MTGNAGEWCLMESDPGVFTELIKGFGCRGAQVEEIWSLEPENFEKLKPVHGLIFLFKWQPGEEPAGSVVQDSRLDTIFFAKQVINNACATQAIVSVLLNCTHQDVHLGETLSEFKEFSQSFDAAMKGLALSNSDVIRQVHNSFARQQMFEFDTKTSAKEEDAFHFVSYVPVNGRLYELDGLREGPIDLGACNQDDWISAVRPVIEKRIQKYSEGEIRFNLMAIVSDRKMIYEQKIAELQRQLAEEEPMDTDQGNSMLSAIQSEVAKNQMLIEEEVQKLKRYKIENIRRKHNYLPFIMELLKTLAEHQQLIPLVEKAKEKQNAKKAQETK
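Material: Human UCH37 enzyme supplied as purified proteasome complex | Schedule: 30 min compound-proteasome preincubation then 25 min substrate reaction, room temperature | Detection: AMC fluorescence from Ub-AMC cleavage, excitation 355 nm, emission 460 nm | Benchmarks: Wells without proteasome as full block, compound-free enzyme plus substrate as uninhibited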
FGF22 binding – shifts melting point of recombinant human FGF22 | Q9HCT0 | recombinant FGF22 thermal shift, SYPRO orange fluorescence; percent of sucrose octasulfate shift, DMSO zero | calls only at 9.99 µM | 1.5% of 340,000 active | AID 651658;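 active = melting point raised past a set limit in the mean and every replicate; inconclusive = no clear call; three in four hits are not shown here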
Target sequence (Q9HCT0 whole entry, looked up): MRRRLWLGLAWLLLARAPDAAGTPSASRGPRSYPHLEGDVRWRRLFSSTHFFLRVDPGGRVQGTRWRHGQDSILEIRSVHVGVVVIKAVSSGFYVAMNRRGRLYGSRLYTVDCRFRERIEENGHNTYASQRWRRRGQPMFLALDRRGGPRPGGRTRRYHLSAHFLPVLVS
Ecoli growth – blocks Escherichia coli growth. OD600, 23 h; active compounds read low. OD600 absorbance (test concentration not listed). 0.21% of 330,000 active;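 active = OD600 absorbance below the run mean of sample wells minus 3.6 SD, in any replicate, cut at about 0.56 in these data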;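 also: stock transfer was 300 nL into about 60 µL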
Ecoli rRNA inh OD600 – second read-out of Ecoli rRNA inh, no call of its own (marks repeat the call); OD600 change, %; measured here: OD600 growth;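 optical density of the mix in the first replicate; 0 = DMSO median and -100 = no signal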
Ecoli rRNA inh RFP – recorded beside Ecoli rRNA inh, whose call it bears; RFP signal change, %; measured here: RFP humanized mutant strains;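 first replicate; 0 = DMSO median and -100 = no signal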
Numbers without * were called inactive; i = inactive; ? = inconclusive; . = not tested or not shown. Some of the compounds tested (hit frequency here may not be typical).

Compound,MLL AF4-AF9 inh,T cruzi repl,Beta cell apopt,A1 inh,Ecoli rRNA inh,Ecoli rRNA inh OD600,Ecoli rRNA inh RFP,UCH37 DUB inh,FGF22 binding,Ecoli growth
COC(=O)c1cn(NC(=O)C2COc3ccccc3O2)c(=O)c2ccccc12 (stereo not given),.,1,2,0.6,.,.,.,0.6,.,0.63
COC(=O)c1n[nH]n(-c2ccc(F)c(Cl)c2)c1=O,-6.2,-14,0,-0.6,7,1,2.8,2.6,i,0.68
CC(C)(C)c1cc(NC(=O)CSc2nncs2)n(-c2ccccc2)n1,-1.4,11,-1,0.0,1,-3,-6.8,-3.1,i,0.7
COC(=O)CSc1nnc(-c2ccoc2C)n1-c1ccc(C)cc1,.,-16,-4,1.6,.,.,.,0.7,.,0.71
COC(=O)[C@]1(C)N[C@H](CN(C)C(=O)NC(C)C)[C@@H]2C(=O)N(Cc3ccccc3)C(=O)[C@@H]21,1.5,.,-6,-0.1,9,17,-3.0,3.8,i,0.7
COc1cccc(OC)c1C(=O)Nc1c(C(=O)N2CCN(c3ccccn3)CC2)oc2ccccc12,1.6,-3,-2,-0.5,-14,-13,-3.7,3.0,i,0.7
O=C(COc1ccc(Br)cc1)N1CCN(c2ccc([N+](=O)[O-])c(N3CCCCC3)c2)CC1,6.2,6,1,-0.9,-6,10,2.2,7.2,i,0.69
Cn1nc(C(=O)N2CCN(S(=O)(=O)c3ccc(Cl)cc3)CC2)c2ccccc2c1=O,-7.9,.,.,.,0,3,1.1,2.3,i,0.69
CNC(=O)c1cc2cccc(OC)c2oc1=O,.,5,2,0.0,.,.,.,6.1,.,0.74
Cc1nc(Sc2ccccc2)c(C#N)c(C)c1[N+](=O)[O-],-0.9,-1,.,0.4,-35*,-3.6*,-6.5*,.,i,.
CCOc1ccc(N(CC(=O)Nc2cccc(OC)c2)S(C)(=O)=O)cc1,-13,7,2,-0.3,12,15,2.4,4.3,i,0.68
C/C(=N/NC(=O)CCC(=O)Nc1cccc(Cl)c1)c1ccc(C)cc1,3.9,-1,-7,0.4,12,13,3.1,.,i,.
COc1cccc(C2C(C(=O)c3cccs3)=C(O)C(=O)N2CCN2CCOCC2)c1OC (stereo not given),-0.6,6,.,.,3,15,-0.5,8.0,i,0.67
CC1=Nc2ccc(Br)cc2C(c2ccccc2)N1CC(=O)O (stereo not given),-0.8,-13,-7,0.9,17,11,-0.3,2.1,i,0.69
CCC(C)(C)NC(=O)C(c1cccc(OC)c1)N(C(=O)CNC(=O)c1cccs1)c1cccnc1 (stereo not given),-7.0,-8,-9,0.7,-1,4,-3.9,0.3,i,0.67
O=C1/C(=C/c2cccs2)CCC/C1=C\c1cccs1,0.2,9,-2,-2.7,-15,-11,-1.9,.,i,.
COc1cc(N)c(Cl)cc1C(=O)OC(C)C(=O)Nc1cccc(S(=O)(=O)N2CCOCC2)c1 (stereo not given),-2.2,21,-2,-0.5,-4,-7,-1.3,3.3,i,0.64
COc1ccc2nc(NC(=O)CN3C(=O)NC4(CCCCC4)C3=O)sc2c1,-1.9,-25,-3,-0.1,2,1,-0.6,0.1,i,0.68
O=C(c1ccco1)N1CCC(c2nc(-c3ccc(F)cc3)no2)CC1,.,3,2,1.2,.,.,.,5.1,.,0.67
Cc1oc(-c2ccc(Cl)cc2)nc1CS(=O)CC(=O)NCCCN1CCN(Cc2ccccc2)CC1 (stereo not given),9.6,5,51,0.0,5,-3,19,1.3,i,0.68
Nc1ccc(Cc2ccccn2)cc1,2.2,-8,4,1.0,-2,5,3.1,-1.0,i,0.64
CN(C(=O)COC(=O)c1ccccc1NCCO)C1CCS(=O)(=O)C1 (stereo not given),-1.6,-18,-4,1.0,11,11,2.0,i,i,0.72
Cc1cnc(C(=O)OC(C)C(=O)Nc2cccc3ccccc23)cn1 (stereo not given),4.4,-18,0,-0.2,5,12,-0.2,6.4,i,0.7
Cc1ccc(SCCC(=O)Nc2cc(C)on2)cc1,-5.7,1,-14,-0.5,12,-1,-1.8,6.2,i,0.68
Cc1ccc(C)c2[nH]c(=O)c(CN(CCN3CCCC3)C(=O)Nc3cccc(Cl)c3)cc12,.,8,-8,-0.4,.,.,.,5.5,.,0.67
C=C1CCN(C(C)C(=O)OC)S(=O)(=O)c2ccccc21 (stereo not given),1.0,7,-6,0.1,0,-4,-0.8,2.4,i,0.72
CCNC(=O)c1ccc(C23CC4CC(CC(C4)C2)C3)o1,-6.3,-4,7,0.4,18,3,4.7,2.1,i,0.71
CCCn1nnnc1NC(=O)c1cccs1,.,-9,1,-0.1,.,.,.,0.8,.,0.64
COC(=O)/C(C(C)=O)=C(/C=C/C=C/N(C)C)N(C)C,5.3,-6,-5,0.0,6,8,-1.9,6.8,i,0.66
O=C(NCC1CC1(Cl)Cl)Nc1ccc(Cl)c(Cl)c1 (stereo not given),-1.5,20,43,-1.3,-57,-79,-17,1.7,i,0.43*

Two of these compounds in another layout.
Values run as follows: MLL AF4-AF9 inh | T cruzi repl | Beta cell apopt | A1 inh | Ecoli rRNA inh | Ecoli rRNA inh OD600 | Ecoli rRNA inh RFP | UCH37 DUB inh | FGF22 binding | Ecoli growth
- Cc1cnc(C(=O)OC(C)C(=O)Nc2cccc3ccccc23)cn1 (stereo not given)
    4.4 | -18 | 0 | -0.2 | 5 | 12 | -0.2 | 6.4 | i | 0.7
- Cc1ccc(SCCC(=O)Nc2cc(C)on2)cc1
    -5.7 | 1 | -14 | -0.5 | 12 | -1 | -1.8 | 6.2 | i | 0.68

Continuation:
Compound,MLL AF4-AF9 inh,T cruzi repl,Beta cell apopt,A1 inh,Ecoli rRNA inh,Ecoli rRNA inh OD600,Ecoli rRNA inh RFP,UCH37 DUB inh,FGF22 binding,Ecoli growth
CC(C)Sc1cc(N2CCCC2)nc(-c2ccc(F)cc2)n1,.,12,-1,?,.,.,.,1.3,.,0.69
CCc1c(C)sc(NC(=O)C2CC2c2ccccc2)c1C(N)=O (stereo not given),.,6,1,0.7,.,.,.,3.2,.,0.68
COc1cc(OC)cc(C(=O)NCCC(c2ccccc2)c2ccccc2)c1,0.0,26,1,-0.1,-11,-8,0.3,3.7,i,0.69
COC(=O)c1ccc(CSc2nnc(-c3ccncc3)o2)cc1,-6.0,-5,1,-0.7,-4,8,6.0,5.4,i,0.69
COc1cccc(/C=N/NC(=O)c2cc(-c3ccccn3)nc3ccccc23)c1O,-3.4,.,93*,-0.5,4,6,-4.3,.,i,.
COc1cc2c(cc1OC)CN(C(=O)c1cc3ccccc3oc1=O)CC2,.,-1,-2,1.2,.,.,.,8.6,.,0.72
CN1CCN(C(=O)C2CCCN(S(=O)(=O)c3ccc(Cl)cc3)C2)CC1 (stereo not given),-2.6,-8,1,0.2,16,16,8.7,2.3,i,0.71
Cc1nc2ccccc2c(=O)n1CCc1ccc(O)cc1,-1.6,-3,-8,0.3,4,-2,-1.7,4.5,i,0.7
Cc1cc2oc(=O)cc(CN3CCCc4ccccc43)c2cc1C,.,48,-6,-0.3,.,.,.,3.0,.,0.72
COCc1cc(C)nc(Nc2ccccc2OC)c1C#N,-7.0,6,-1,2.1,0,2,-1.2,-24,i,0.7
COc1cc([N+](=O)[O-])cc(CN2CCCCC2)c1O,8.5,1,-2,-0.1,14,14,-5.7,8.0,i,0.68
CC(=O)CSc1nnc(-c2ccc(S(=O)(=O)N3CCOCC3)cc2)n1C,-1.8,3,-1,0.1,3,7,-1.2,4.4,i,0.69
CCOc1ccc(C(C)=O)cc1CC(C(N)=O)C(N)=O,.,-6,-1,0.2,.,.,.,0.3,.,0.76
Cn1ncc(Cl)c1C(=O)N1CCN(S(=O)(=O)c2ccc(Cl)s2)CC1,-1.0,0,-4,-0.6,-1,-4,-1.3,0.4,i,0.68
COCCN(C(=O)c1csnn1)C(C(=O)NC1CCCC1)c1ccccc1F (stereo not given),2.5,-14,-1,0.0,4,14,-1.8,4.6,i,0.65
C=CCn1c(Cc2csc(N)n2)nnc1SCC(=O)Nc1ccc(C(=O)OCC)cc1,.,6,-6,-0.5,.,.,.,2.7,.,0.65
COc1ccc(CC(=O)Nc2ccccc2N2CCCC2)cc1OC,4.0,12,.,0.7,0,-6,-2.9,-2.1,i,0.69
Cc1ccc(N(CC2CO2)S(=O)(=O)c2ccc(C)cc2)cc1 (stereo not given),-1.9,13,-3,0.4,-28,-24,3.4,4.1,i,0.65
CCC(NC(=O)c1ccncc1)c1ccccc1 (stereo not given),-2.2,-17,-1,0.3,1,6,-0.6,1.9,i,0.71
CCCn1nnc(NC(=S)NC(=O)c2ccccc2OC)n1,-2.2,.,-1,0.7,.,.,.,-2.0,i,0.68
Cc1ccc(-n2nnnc2SCC(=O)Nc2c(C)n(C)n(-c3ccccc3)c2=O)cc1,.,-9,-8,0.8,.,.,.,-0.4,.,0.71
Cc1ccc2c(c1)C(=O)C(=O)N2Cc1ccccc1,8.8,.,-9,0.9,4,-7,15,-2.6,i,0.7
O=C(C(Cl)Cl)N1c2ccccc2OCC1c1ccccc1 (stereo not given),.,33,76*,-0.5,.,.,.,2.2,.,0.7
CCCCCCC(=O)NNC(=O)c1c(O)c2ccccc2n(CCC)c1=O,2.1,-10,3,-1.0,-2,-2,-0.1,-2.2,i,0.68
Cc1ccc2[nH]cc(C(=O)CCl)c2c1,0.9,?,-81,0.7,0,2,7.9,3.2,i,0.58
COc1ccccc1NC(=O)Cn1cnc2sc(C(=O)Nc3cc(OC)c(OC)c(OC)c3)c(C)c2c1=O,1.0,8,1,-0.4,0,10,2.9,0.1,i,0.64
C=CCn1c(CSc2ccccc2[N+](=O)[O-])n[nH]c1=S,-4.7,-13,-6,0.9,-3,2,1.2,4.2,i,0.6
O=C(N/N=C/c1ccc(N2CCOCC2)s1)c1ccccc1Br,-1.6,3,9,0.4,12,14,2.9,.,i,.
CN(Cc1ccccc1)C(=O)CN1CCN(C(c2ccccc2)c2ccccc2)CC1,4.1,-2,-11,-0.9,-57,-79,-30,1.8,i,0.68
Cn1cnnc1SC1c2cccc3cccc(c23)C1NS(=O)(=O)c1ccccc1 (stereo not given),.,-7,-2,-0.4,.,.,.,5.5,.,0.73
CCn1nnc2cc(C(=O)Nc3cc(Cl)ccc3C)ccc21,-0.7,.,2,1.5,13,15,12,1.4,i,0.7
Cc1ccc(NC(=O)CSCC(=O)OCc2cc(=O)oc3cc(O)ccc23)c(C)c1,0.3,-10,6,1.1,-14,-26,-3.8,i,i,0.6
COc1ccc(CCNc2oc(-c3ccc(OC)c(OC)c3)nc2P(=O)(OC)OC)cc1OC,.,-3,-7,0.1,.,.,.,-198,.,0.64
Cc1ccc(NC(=O)c2cccc(NC(=O)CCC(=O)O)c2)cc1C,0.9,-2,-7,-0.7,7,6,0.7,3.6,i,0.69
